motility = Vibrio cholerae motility inhibitors, OD read-out (AID 588778); Vibrio cholerae motility, OD read-out; higher % means a stronger effect; test concentration not given here; primary cut-off and reference of the scale not given here; strong numbers were not always called active; 10,000 tested, under 10 active; inhibition, %, or IC50 in µg/mL where a hit was titrated; in the data active = confirmed in a dose series; inconclusive = primary hit not retested
motility viability = second read-out of motility, no call of its own (marks repeat the call); inhibition, %; measured here: bacterial viability at 10 ug/mL;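 higher means fewer living bacteria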
* marks the source's active call; other numbers are inactive results; ? = inconclusive; . = not tested or not shown.

SMILES	motility	motility viability
COc1ccc(Cl)cc1Nc1nnc(-c2cnccn2)s1	4%	2
COCCNC(=S)Nc1nc(OC)cc(OC)n1	-5%	1
Clc1ccc(CNc2ncnc3nc[nH]c23)cc1	28%	8
O=C(N1CCN(c2ccc(Cl)c(Cl)c2)CC1)C12CC3CC(CC(C3)C1)C2	-2%	-1
COC(=O)c1ccccc1NC(=O)NNC(=S)Nc1ccc(Cl)cc1	6%	1
O=C(Nc1cccc(S(=O)(=O)c2cccc(NC(=O)c3cccs3)c2)c1)c1cccs1	-21%	-10
O=C(O)CC(Cc1ccc(Br)cc1)C(=O)NC1CCCCC1 (stereo unspecified)	-34%	-10
O=S(c1ccc2ccccc2c1)N1CCCCC1 (stereo unspecified)	16%	1
O=c1cccc2n1C1CC(C2)CN(C(=S)Nc2ccccc2)C1 (stereo unspecified)	-20%	-5
Cc1nn(C(C)CC(=O)O)c(C)c1Cl (stereo unspecified)	-8%	2
O=[N+]([O-])c1ccccc1OCCCNCc1ccco1	11%	4
Cc1cc(CO)c(C)n1-c1ccc(F)c(Cl)c1	13%	2
Cc1ccc(SCC(=O)c2c(C)[nH]c3ccccc23)cc1	-10%	-6
Cc1ccccc1NC(=O)NC1CCS(=O)(=O)C1 (stereo unspecified)	0%	-4
COC(=O)c1sccc1NC(=O)C1C2C=CC(O2)C1C(=O)O (stereo unspecified)	-2%	-3

In another format: entries from further up
Below each compound: motility, motility viability
COCCNC(=S)Nc1nc(OC)cc(OC)n1
  -5%, 1
Clc1ccc(CNc2ncnc3nc[nH]c23)cc1
  28%, 8
O=C(N1CCN(c2ccc(Cl)c(Cl)c2)CC1)C12CC3CC(CC(C3)C1)C2
  -2%, -1
COC(=O)c1ccccc1NC(=O)NNC(=S)Nc1ccc(Cl)cc1
  6%, 1
O=C(Nc1cccc(S(=O)(=O)c2cccc(NC(=O)c3cccs3)c2)c1)c1cccs1
  -21%, -10
O=C(O)CC(Cc1ccc(Br)cc1)C(=O)NC1CCCCC1 (stereo unspecified)
  -34%, -10
O=S(c1ccc2ccccc2c1)N1CCCCC1 (stereo unspecified)
  16%, 1

Other compounds:
SMILES	motility	motility viability
O=C(c1cc(-c2ccccc2)nc2ccc(Br)cc12)N1CCc2ccccc21	-16%	-3
Nc1nonc1-c1nc2ccccc2n1CC(=O)NCc1ccco1	10%	8
CCOC(=O)C1=C(C)OC(N)=C(C#N)C1c1c(C)cc(C)cc1C (stereo unspecified)	-8%	0
O=C(CN1C(=O)C(=O)c2ccccc21)OCc1ccc2nonc2c1	6%	29
O=c1c2ccccc2c2ccccc2c(=O)n1-c1ccc2ccccc2c1	-16%	-14
N#Cc1cc2c(nc1SCc1ccc([N+](=O)[O-])cc1)C1CCN2CC1	3%	-2
CCOc1ccc(N2CC(C(=O)Nc3cccc(C)n3)CC2=O)cc1 (stereo unspecified)	22%	5
O=C1NN(c2ccc(F)cc2)C(=O)/C1=C\c1ccc(OC(=O)c2cccs2)cc1	-9%	-2
COc1ccc(-c2nnc(-c3ccccc3)n2-c2cccnc2)cc1	0%	4
O=C(Oc1ccccc1)Oc1ccccc1	22%	11
Cc1cnn(C(=S)NCCc2ccccc2)c1	4%	0
O=S(=O)(c1ccccc1)N1CCN(Cc2ccccc2C(F)(F)F)CC1	6%	-2
Cc1cc(Sc2nnc(C)s2)c2ccccc2n1	1%	-4
CS(C)=C1C(=O)NC(=O)N(Cc2ccc(F)cc2)C1=O	-7%	-4
CCC(Oc1ccccc1)C(=O)NCCN(C)C (stereo unspecified)	-4%	-3
CCOc1cc([N+](=O)[O-])ccc1NC(=O)CC1Sc2ccccc2NC1=O (stereo unspecified)	9%	-1
Cc1ccc(CCc2nnc(SCC(=O)Nc3cc(Cl)ccc3Cl)n2-c2ccccc2)o1	6%	-3
Cc1ccc(NC(=O)c2ccc(C#CC3(O)CCCCC3)cc2)cc1C	-13%	-6
CNC(=O)c1[nH]cnc1C(=O)Nc1ccccc1OC	4%	-1
CC(NC(=O)C(F)(F)F)C(=O)Nc1ccc2c(c1)Cc1ccccc1-2 (stereo unspecified)	-15%	-6
c1ccc(-c2csc3nnc(SCc4ccc5c(c4)OCCO5)n23)cc1	0%	8
COC(=O)COc1cc(OCC(=O)OC)c2c(C)c(Cl)c(=O)oc2c1	29%	6
COC(=O)c1c(-c2ccncc2)csc1NC(=O)c1oc2ccccc2c1C	-1%	37
Cc1ccc(C(=O)O)cc1-n1cccc1	19%	-1
CCOc1cc(/C=C/C(=O)c2ccccc2)ccc1OCc1ccccc1Cl	-14%	-8
Fc1ccc(Nc2nnc(-c3cccnc3)s2)cc1Cl	-5%	4
COc1ccc([N+](=O)[O-])cc1NC(=O)C(C)N1C(=O)C2CC=C(Cl)CC2C1=O (stereo unspecified)	-5%	6
Nc1cc(=O)[nH]c(SCC(=O)Nc2nc3ccc([N+](=O)[O-])cc3s2)n1	4%	11
COc1cc2c(cc1NC(=O)COc1ccc(Br)cc1C)oc1ccccc12	-21%	0
Cn1c2ccccc2n2c(SCC(=O)N3CCN(c4ccccc4)CC3)nnc12	1%	-5

Molecules above that have bromine (three):
SMILES	motility	motility viability
O=C(O)CC(Cc1ccc(Br)cc1)C(=O)NC1CCCCC1 (stereo unspecified)	-34%	-10
O=C(c1cc(-c2ccccc2)nc2ccc(Br)cc12)N1CCc2ccccc21	-16%	-3
COc1cc2c(cc1NC(=O)COc1ccc(Br)cc1C)oc1ccccc12	-21%	0

Remaining list, next part.
SMILES	motility	motility viability
Cc1onc(-c2ccccc2)c1C(=O)Nc1c(C)n(C)n(-c2ccccc2)c1=O	19%	1
CCC(C)(C)c1ccc(OCCN2CCNCC2)c(Cl)c1	14%	2
CCCS(=O)(=O)N1CCN(Cc2ccsc2)CC1	-11%	1
O=C(NN1C(=O)CCC1=O)C(O)c1ccccc1 (stereo unspecified)	6%	-6
Cc1nnc(SCCCC(=O)c2ccc(C(C)(C)C)cc2)s1	15%	3
CCOC(=O)C1CCN(C(=O)Nc2ccc3oc(C)nc3c2)CC1	0%	18
O=C(NC(=S)Nc1c(F)cc(F)cc1Br)c1cc2ccccc2o1	-6%	-1
O=C(CN(Cc1c(F)cccc1Cl)S(=O)(=O)c1ccc(Cl)cc1)N1CCOCC1	6%	6
CC1CN(C(=O)c2ccc(Br)o2)CC(C)O1 (stereo unspecified)	10%	-1
NC(=S)N1CCC(c2ccccc2)=N1	26%	6
Cc1cc(Br)cc(C)c1OCC(=O)NNC(=O)c1cccs1	10%	-1
c1ccc(-c2nnc3sc(CN4CCc5ccccc54)cn23)cc1	-17%	-4
Cc1csc(NC(=O)CSc2nc3c(c(C(F)(F)F)c2C#N)CCC3)n1	4%	2
Cc1cc(NC(=O)c2c(F)c(F)c(F)c(F)c2F)no1	6%	9
CCOC(=O)C1CCCN1C(=O)c1sc2ccccc2c1Cl (stereo unspecified)	-2%	2
C#CC(CC)(CC)NC(=S)Nc1cccc(C(C)=O)c1	-7%	-4
CCOC(=O)c1c(NC(=O)CSc2n[nH]c(N)n2)sc(C)c1C	-17%	-10
O=C(O)CCc1ccc(-c2cccs2)n1-c1cc(Cl)ccc1Cl	6%	0
O=C(CCN1C(=O)c2ccccc2C1=O)C[N+](=O)[O-]	-7%	3
CCOC(=O)C1=C(C)NC2=C(C(=O)CC(C)(C)C2)C1c1ccc2c(c1)CCCN2C (stereo unspecified)	-7%	-3
O=C(Cc1c(F)cccc1Cl)Nc1ccccc1C(F)(F)F	-31%	-2
O=S(=O)(Oc1ccc(OCc2ccccc2)cc1)c1ccc(F)cc1	-7%	-8
O=S(=O)(Cc1ccccc1Cl)N1CCN(Cc2ccc3c(c2)OCO3)CC1	23%	0
COc1cc2c(NCc3ccccc3)cc(O)c(CC(=O)Nc3ccc(Cl)cc3)c2cc1OC	9%	1
CCOc1ccc(Br)cc1C(=O)NCC1(c2ccccc2)CCOCC1	-6%	-1
COc1ccc(CCNc2cc(N3CCN(C(=O)c4cc(F)c(F)cc4Cl)CC3)ccc2[N+](=O)[O-])cc1OC	-7%	-10
Cc1cc(C(=O)NNC(=S)NCC2CCCO2)no1 (stereo unspecified)	-8%	-4
Cc1cc(C)nc(NC(=O)NC23CC4CC(CC(C4)C2)C3)c1	-12%	-8
CN(C)C(=O)c1ccccc1I	-13%	-10
Cc1c(Sc2nnc(-c3ccccc3)n2-c2ccccc2)c(=O)[nH]c2cc3c(cc12)OCO3	-15%	-20
CC(=O)c1cccc(NC(=O)c2ccsc2NC(=O)c2ccoc2C)c1	-15%	-5
CCOC(=O)c1ccc(NC(=S)N2CCCC(C(=O)N3CCCC3)C2)cc1 (stereo unspecified)	4%	0
COc1ccc(NC(=O)Nc2cc(Cl)c(Cl)cc2Cl)cc1OC	-36%	-12
CCSc1sc(CC)cc1C1C(C#N)=C(N)N(c2ccccc2F)C2=C1C(=O)CCC2 (stereo unspecified)	10%	-8
O=C(CCc1ccccc1)NCCC1=CCCCC1	4%	5
O=C(O)Cn1c2ccc(Br)cc2c2nc3ccccc3nc21	0%	1
COc1cc(CNc2ccc(C(=O)O)cc2)cc(Cl)c1OC	-5%	2
Cc1cc(NS(=O)(=O)c2ccc(NC(=O)c3cc4ccccc4o3)cc2)nc(C)n1	5%	-4
O=[N+]([O-])c1ccc(/C=C/c2nn3c(Cc4ccccc4)nnc3s2)cc1	-3%	-11
COC(=O)c1cnc2c(C(F)(F)F)cccc2c1OC	-3%	2
O=C(CC12CC3CC(CC(C3)C1)C2)N1CCCC1	2%	-10
CC(=O)n1cc(Nc2ccccc2C(=O)O)c2ccccc21	1%	0
CCOC(=O)c1ccc(CNC(=O)CCC(=O)O)cc1	2%	-10
Cc1ccc(OC(=O)CCC(=O)NC(C)(C)C)cc1	4%	-5
Cc1nc2cc(-c3ccccc3)sc2c(=O)n1N	-19%	-15
Cc1nc2ncccn2c1-c1csc(NCc2ccco2)n1	-2%	-7
O=C(Nc1ccc2oc(=O)ccc2c1)c1ccc(-c2cccc(Cl)c2Cl)o1	19%	26
CCS(=O)(=O)NCCc1ccc(OC)c(OC)c1	-5%	-3
Cc1c(Cl)cccc1NC1=NCC(C)S1 (stereo unspecified)	33%	7
O=[N+]([O-])c1cccc(C(=S)N2CCC(Cc3ccccc3)CC2)c1	4%	0
CCOC(=O)c1cnn2c(NC(=O)c3c(Br)cnn3C)c(C#N)nnc12	1%	-2
O=C(O)CCCCCNC(=O)/C(=C\c1ccc2c(c1)OCO2)NC(=O)c1ccc(Br)o1	4%	24
COc1cc(C(=O)O)c(-n2cnnn2)cc1OC	6%	-6
CC(Oc1cccc(Cl)c1)C(=O)Nc1ccc([N+](=O)[O-])cn1 (stereo unspecified)	3%	0
Cc1cc(=O)oc2cc(NC(=S)NC(C)c3ccc4c(c3)OCO4)ccc12 (stereo unspecified)	-7%	8
COc1ccc(CCNC(=S)N2CCN(c3ncccn3)CC2)cc1OC	11%	-2
CC1CCN(CCOCCOc2ccccc2-c2ccccc2)CC1	24%	1
CCOC(=O)C1CCN(S(=O)(=O)c2ccc(OC)c(I)c2)CC1	-15%	-8
CC(C)NCCOCCOc1ccc(Br)cc1Cl	7%	1
COc1ccc(CSc2nc(C)cc(=O)[nH]2)cc1Br	-6%	-4

(listing goes on)
SMILES	motility	motility viability
O=C(NC(=S)Nc1ccc(I)cc1F)c1cccs1	-22%	-14
O=C1CC(c2ccccc2Cl)Cc2c1cnn2-c1nc2ccccc2s1 (stereo unspecified)	6%	3
CCOc1cc(C(=O)Nc2ccc(-c3ccc([N+](=O)[O-])cc3)cc2)cc(OCC)c1OCC	-1%	-6
CN1C(=O)C2(C(C#N)=C(N)Oc3c2oc(CO)cc3=O)c2ccccc21 (stereo unspecified)	19%	27
O=[N+]([O-])c1cc2nc(C(F)(F)F)nc2c2[nH]snc12	-8%	0
Cc1cc(Nc2ccccc2)n(C(=O)c2ccc(N)cc2)n1	-1%	-2
Nc1cc(=O)[nH]c(Nc2nc3ccccc3s2)n1	21%	18
COc1cc(OC)nc(N2C(=O)C(C)C(Cc3ccc(C)cc3)C2=O)n1 (stereo unspecified)	-3%	-3
Cc1nnc(NC(=O)CSc2nnc(CN3CCOCC3)n2-c2ccccc2)s1	4%	-5
O=C(NC1(C(F)(F)F)N=C(c2ccccc2)N(Cc2ccccc2)C1=O)c1cccs1 (stereo unspecified)	4%	22
CCOc1ccc(NC(=O)CC2S/C(=N\N=C(/C)C(C)(C)C)NC2=O)cc1 (stereo unspecified)	8%	26
C=C(C)c1cccc(C(C)(C)NC(=O)NC(C)c2cccs2)c1 (stereo unspecified)	5%	1
Cc1nnc(NCc2ccco2)[nH]c1=O	46%	25
O=C(CSc1ccccn1)N1CCN(c2cccc(Cl)c2)CC1	-1%	-3
Cc1occc1C(=O)Nc1ccc([N+](=O)[O-])cn1	-3%	-2

Fetched by structure from the list above (2):
SMILES	motility	motility viability
O=C(Nc1cccc(S(=O)(=O)c2cccc(NC(=O)c3cccs3)c2)c1)c1cccs1	-21%	-10
CCC(Oc1ccccc1)C(=O)NCCN(C)C (stereo unspecified)	-4%	-3

Single records (already shown). Order of values: motility	motility viability
O=C(NC1(C(F)(F)F)N=C(c2ccccc2)N(Cc2ccccc2)C1=O)c1cccs1 (stereo unspecified) as listed: 4%	22
Cc1nnc(NCc2ccco2)[nH]c1=O as listed: 46%	25
O=C1CC(c2ccccc2Cl)Cc2c1cnn2-c1nc2ccccc2s1 (stereo unspecified) as listed: 6%	3
O=[N+]([O-])c1cc2nc(C(F)(F)F)nc2c2[nH]snc12 as listed: -8%	0
Cc1occc1C(=O)Nc1ccc([N+](=O)[O-])cn1 as listed: -3%	-2

(next part)
SMILES	motility	motility viability
O=C(NCCSc1ccc(Cl)cc1)Nc1ccccc1	52%	14
COCCCNC(=S)NNC(=O)c1ccccn1	?	.
Cc1ccc(CNCc2cccnc2)s1	0%	0
COc1ccc(-c2n[nH]c(C(F)(F)F)c2-c2cnn(-c3ccccc3)c2)c(O)c1OC	-1%	13
CCOc1cc(C(=O)n2cc(C)cn2)cc(OCC)c1OCC	-25%	-8
CC(NCc1ccccc1OC1CCCC1)c1ccccc1 (stereo unspecified)	16%	3
O=C(Nc1ncn[nH]1)c1ccccc1CCc1ccccc1	-10%	-10
Cc1cc(C(=O)NC(C)C2CCCO2)no1 (stereo unspecified)	16%	7
Cc1cc(OCCCn2ccnc2)ccc1[N+](=O)[O-]	-12%	0

The list is partial (hit frequency here may not be typical).
